PV pol inh: inhibitors of poliovirus RNA polymerase binding and polymerization | AID 588519 | poliovirus polymerase elongation, fluorescence polarization; stronger effect = lower value | P03300 | 150,000 compounds, 0.66% hits | % elongation, % (compound at 16.7 µg/mL); in the data active = % elongation below about 90%; also: some results filed as inactive read as strong as hits
Target sequence (P03300 1749-2209 limits assumed): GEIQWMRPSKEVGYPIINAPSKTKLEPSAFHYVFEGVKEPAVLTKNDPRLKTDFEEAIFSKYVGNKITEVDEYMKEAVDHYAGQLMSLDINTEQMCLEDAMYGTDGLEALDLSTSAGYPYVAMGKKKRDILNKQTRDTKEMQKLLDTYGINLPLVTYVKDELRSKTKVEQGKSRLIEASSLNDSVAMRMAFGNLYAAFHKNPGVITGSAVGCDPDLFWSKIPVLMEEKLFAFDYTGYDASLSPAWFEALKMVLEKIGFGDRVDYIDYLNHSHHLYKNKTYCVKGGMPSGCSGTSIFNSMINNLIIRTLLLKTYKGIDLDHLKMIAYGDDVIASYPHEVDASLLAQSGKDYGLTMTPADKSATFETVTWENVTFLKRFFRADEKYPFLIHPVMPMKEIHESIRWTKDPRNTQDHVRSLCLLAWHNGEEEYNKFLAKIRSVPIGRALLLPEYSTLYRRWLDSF
MbtI inh: inhibitors of Mycobacterium tuberculosis siderophore enzyme MbtI | P9WFX0 | purified MbtI enzyme, fluorescence intensity read-out | inhibition, %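 (about 17 µg/mL by stock and volumes)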 | 100,000 compounds, 0.89% hits | AID 493033;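 active = above 50% in both replicates, above 80% if mildly self-fluorescent; inactive = the rest, strongly fluorescent compounds included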;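 also: 0% = mean of negative and 100% = mean of positive controls; one replicate is shown; some compounds called inactive have numbers as strong as hits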
Target sequence (P9WFX0 whole entry, looked up): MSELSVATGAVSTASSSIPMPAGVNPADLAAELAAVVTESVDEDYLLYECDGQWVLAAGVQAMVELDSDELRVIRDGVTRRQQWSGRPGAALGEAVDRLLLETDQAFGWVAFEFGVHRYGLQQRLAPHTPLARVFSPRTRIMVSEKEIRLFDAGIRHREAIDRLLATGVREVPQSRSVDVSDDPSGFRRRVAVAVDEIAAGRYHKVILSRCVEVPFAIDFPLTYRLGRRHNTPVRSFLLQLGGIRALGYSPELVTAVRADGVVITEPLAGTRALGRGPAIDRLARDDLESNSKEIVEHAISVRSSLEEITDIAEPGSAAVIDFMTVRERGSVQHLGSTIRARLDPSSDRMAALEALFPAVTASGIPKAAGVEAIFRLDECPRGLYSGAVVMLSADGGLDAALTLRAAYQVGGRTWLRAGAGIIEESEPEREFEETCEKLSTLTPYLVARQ
MenB inh: inhibitors of Mycobacterium tuberculosis MenB enzyme. 100,000 compounds, 0.43% hits. inhibition, %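 (about 12 µg/mL by stock and volumes)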. MenB enzyme assay, absorbance read-out; some hits fall short of the stated cut. P9WNP5. AID 540299;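 active = mean of two replicates above 30%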;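 also: 0% = no compound and 100% = wells with inactive enzyme; the first replicate is given; strong numbers were not always called active; inactives centre near -10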
PV pol inh intensity: further read-out of PV pol inh, marked with its call; % elongation; measured here: total intensity read-out; formula for this scale not given here;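 total fluorescence in place of polarization; lower means less elongation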
The depositor's hits bear a star; i = inactive; . = no result given; & = joins results of further samples; ! = a repeat was not active.

SMILES	PV pol inh	PV pol inh intensity	MbtI inh	MenB inh
CCN(CC)c1ccc(NC(=O)COC(=O)Cn2nnc(-c3ccccc3)n2)cc1	100	100	14	-9
Cc1cc(=O)[nH]c(SCC(=O)N(C)c2ccccc2)n1	100	100	-4	4
Cc1nc(CC(=O)N/N=C/c2ccc(CSC(F)F)o2)cs1	122	139	12	-22
CSC1=N/C(=C\c2ccccc2Cl)C(=O)N1N(C)C	100	92	-8	-12
COCC(=O)N1N=C(c2cccc(NS(C)(=O)=O)c2)CC1c1ccccc1F (configuration not stated)	102	106	2	-28
O=C(O)Cc1ccc2c(c1)OCCO2	99	97	-6	.
CC(C)(C)c1ccc(NC(=O)N2CCOCC2)cc1	96	92	4	-12
NNc1ccnc2cc(Cl)ccc12	105	112	15	-16
O=C1CC(SCc2ccc(Cl)cc2)C(=O)N1c1ccc(Br)cc1 (configuration not stated)	95	104	.	-19
O=C(Oc1cccc(-n2cnnn2)c1)C1CCCCC1	101	99	-12	-9
O=C(CC1CCCCC1)Nc1ccc2nc3n(c(=O)c2c1)CCCC3	104	103	-5	-3
COCCNc1nc(-c2ccc(S(=O)(=O)N3CCCCC3)cc2)cs1	96	100	101	-29
CCN(c1ccccc1C(=O)O)S(=O)(=O)c1ccc2[nH]c(=O)[nH]c2c1	99	100	20	-2
CNc1nnc(Sc2nnc(NC)s2)s1	91	86	90*	-16
COc1cccc(C(=O)N(C)CC(OC)OC)c1	97	100	-7	-17
COC(=O)c1c(C)[nH]c(C(=O)C(C)OC(=O)c2ccccc2NS(=O)(=O)c2ccc3[nH]c(=O)[nH]c3c2)c1C (configuration not stated)	110	107	14	7
N#C/C(=C\c1ccco1)C(=O)C1CC1	102	103	0	-18
O=C(NCCN1CCNC1=O)c1sc2ccccc2c1Cl	102	110	-6	-7
COc1ccc(NC(=O)CC(C)S(=O)(=O)c2ccc3c(c2)CC(C)N3C(C)=O)cc1 (configuration not stated)	100	101	-3	0
CCN(CC)Cc1nc2ccccc2[nH]1	102	102	-9	-11
CCOc1cc(S(=O)(=O)n2c(C)nc3ccccc32)ccc1F	100	102	-16	-40
O=C(COC(=O)CC1CC2CCC1C2)Nc1ccc(F)cc1Cl (configuration not stated)	105	109	-13	.
CNc1nc(-c2ccc(F)c(F)c2)c(C)s1	107	102	-1	-20
CCc1c(C)nc2c(C)cccc2c1SCCC#N	100	104	6	-13
O=S(=O)(c1cc(Cl)ccc1Cl)N1CCCC1	103	99	0	-56
CCN(CC)C(C)C(=O)Nc1c(C)cccc1C (configuration not stated)	100	110	-10	5
O=c1[nH][nH]c(=S)n1C1CC1	99&100	89&102	71*	38*!
COc1cccc(CNS(=O)(=O)c2ccc3c(c2)oc(=O)n3C)c1	100	102	4	4
O=C1c2cccnc2C(=O)N1c1nccs1	101	103	15	14
Cc1ccc2oc(=O)c3cnn(CC(=O)NCCN4CCN(Cc5ccccc5)CC4)c3c2c1	99	101	-8	2
O=c1ccc(-c2ccc(S(=O)(=O)N(CCN3CCOCC3)Cc3ccco3)s2)n[nH]1	101	103	-18	-2
Brc1ccc2ncnc(NCC3CCCO3)c2c1 (configuration not stated)	103	107	.	-17
CCCCc1ccc(NC(=O)CSCC(N)=O)cc1	101	104	-12	-3
CNC(=O)c1c(NC(=O)C2=COCCO2)sc(C)c1C	104	110	-8	-2
O=C1c2ccccc2C(F)(F)c2c(F)cccc21	104	104	-6	-11
Cc1cn2c(-c3ccccc3F)nc(=S)nc2s1	94	101	.	-12
CCOc1ccccc1C(=O)NCc1cn2ccsc2n1	100	101	0	-16
O=C(CSCc1ccc2nsnc2c1)Nc1ccccc1	108	113	.	-14
COc1ccc(OCC(=O)N2CCc3ccccc32)cc1	100	101	1	3
O=C1Cn2c(nc3ccccc32)N1c1cccc(C(F)(F)F)c1	99	99	4	13
COc1cc(N)c(C(=O)c2nccc3cc(OC)c(OC)cc23)cc1OC	102	103	-5	-120
CCOC(=O)c1cnc2scnn2c1=O	109	112	29	2
O=C(c1ccc(-c2ccc(F)cc2)o1)N1CCCN(S(=O)(=O)c2ccc(F)cc2)CC1	103	117	5	-19
Cc1cc(C)cc(NC(=O)CC(NCc2cccnc2)C(=O)O)c1 (configuration not stated)	102	101	0	-4
COc1cc2nc(COC(=O)c3ccco3)n(CC#N)c(=O)c2cc1OC	101	101	-8	-5
CC(=O)N1CCN(C2c3cccc4cccc(c34)C2NS(=O)(=O)c2ccc(Cl)cc2)CC1 (configuration not stated)	101	100	5	3
CC(=O)ON(Cc1c(C)no[n+]1[O-])Cc1c(C)no[n+]1[O-]	101	90	18	-13
CCCCCCc1c(O)nc(SCC(=O)O)[nH]c1=O	94	103	7	22
c1ccc(CSc2nccc(-c3ccc4c(c3)CCO4)n2)cc1	106	114	59	-17
O=C(Oc1cccc(OC(=O)c2ccccc2F)c1)c1ccccc1F	102	99	3	2

Full records, looked up by structure. Screens in order: PV pol inh	PV pol inh intensity	MbtI inh	MenB inh
Cc1cc(C)cc(NC(=O)CC(NCc2cccnc2)C(=O)O)c1 (configuration not stated) in the list: 102	101	0	-4
CCCCCCc1c(O)nc(SCC(=O)O)[nH]c1=O in the list: 94	103	7	22
CC(=O)ON(Cc1c(C)no[n+]1[O-])Cc1c(C)no[n+]1[O-] in the list: 101	90	18	-13
CC(=O)N1CCN(C2c3cccc4cccc(c34)C2NS(=O)(=O)c2ccc(Cl)cc2)CC1 (configuration not stated) in the list: 101	100	5	3
O=C(c1ccc(-c2ccc(F)cc2)o1)N1CCCN(S(=O)(=O)c2ccc(F)cc2)CC1 in the list: 103	117	5	-19

More compounds follow.
SMILES	PV pol inh	PV pol inh intensity	MbtI inh	MenB inh
CCC(=O)N1CCN(c2nc3c(C)c(Cl)ccc3s2)CC1	103	101	12	-23
O=C(Nn1cnnc1)c1ccccc1CCc1ccccc1	98	102	-8	-5
COc1ccc(N2CCN(CCNC(=O)c3ccc4nc5ccccc5c(=O)n4c3)CC2)cc1	101	102	-4	1
CC(=O)Nc1ccc(NC(=O)C2CCN(c3ccc(C(F)(F)F)cn3)CC2)cc1	106	106	-3	7
CCOC(=O)Cc1cc(=O)n(-c2nc3ccccc3s2)[nH]1	106	113	-208	-126
CNC(=S)Nc1ccc(Cl)cc1	101	116	.	-11
O=C(Cn1cc2c(n1)CCCC2)NCCCN1CCCCC1	104	104	-5	1
CCOC(=O)C1CCN(c2nc(-c3cccc(Cl)c3)c3c(n2)-c2ccccc2OC3)CC1	100	103	i	3
O=C(NCCCN1CCOCC1)C1CCC(=O)N1CCc1ccccc1 (configuration not stated)	99	102	-7	16
O=C(NCc1ccco1)c1ccccc1NCC(=O)N1CCCc2ccccc21	.	.	103	7
CC(Sc1nc(-c2ccccc2)cc(C(F)(F)F)n1)C(=O)N1CCCC1 (configuration not stated)	102	103	1	18
O=C(Cc1ccccc1)OCc1nnc(-c2ccccc2)o1	101	103	-14	-1
O=C(c1ccccc1)c1cc(Cl)ccc1NCC(=O)N1CCOCC1	101	105	0	-56
Clc1ccc(Cn2c(CNc3ccccc3)nc3ccccc32)cc1	102	107	-8	-38
COC(=O)c1cc(C(O)(C(=O)OC)C(F)(F)F)c(/N=C/N(C)C)s1 (configuration not stated)	103	100	4	-9
C=C(C)Cn1cnc2ccccc21	103	102	-5	-18
N=C(N)c1cc(C(F)(F)F)cc(C(F)(F)F)c1	106	113	-14	-2
Cc1ccc(-c2csc(C/C(N)=N/O)n2)cc1	102	100	2	21
CC1(C)CN=c2s/c(=C\c3ccc(Cl)cc3)c(=O)n2C1	100	96	27	14
O=C(CN1C(=O)c2ccccc2S1(=O)=O)N1CCC2(CC1)OCCO2	100	103	3	-6
COc1cccc(-n2cc(C(=O)N3CCCCCC3)c3ccccc3c2=O)c1	103	99	-7	-3
O=C1CN(CCc2ccccc2)CC(=O)N1CCc1ccccc1	101	103	-2	5
Cc1c(NC(=O)CSc2nnc(-c3cnccn3)s2)c(=O)n(-c2ccccc2)n1C	102	103	1	-12
CCOC(=O)c1cc2c(=O)n3ccccc3nc2n(CCOC)c1=NC(=O)c1ccccc1	100	102	63	-12
C=CCOc1nc(-c2cccs2)cc(-c2ccco2)c1C#N	103	103	105	12
CC1CC(=O)N(CC(=O)Nc2ccc3c(c2)OCCO3)c2ccccc2S1 (configuration not stated)	100	101	-5	5
CCC1CCCCN1C(=S)NCc1ccccc1 (configuration not stated)	104	106	.	2
CCOC(=O)C1=C(C)NC(=O)CC1c1ccncc1 (configuration not stated)	102	106	-3	.
O=C1OC(Nc2ccccc2C(F)(F)F)c2ccccc21 (configuration not stated)	107	99	-1	-76
O=C(Nc1cccc(-c2nc3ccccc3o2)c1)c1cccc(OCc2ccccc2)c1	102	106	-3	-3
NC(=O)CC1Sc2ccccc2NC1=O (configuration not stated)	101	106	.	-5
C=CCNc1nc(N)c(C(=O)c2ccc(Cl)s2)s1	101	109	-1	-177
CCC(=O)c1ccc(CCCCCC(=O)O)s1	99	100	-1	-13
O=C(NC(=S)Nc1ccc(N2CCOCC2)cc1)c1ccccc1	104	102	-11	-28
Nn1cnn(CC(=O)Nc2nccs2)c1=S	74*	76*	.	-17
Cc1cc2cc(CNC(=O)/C=C\c3ccc4c(c3)OCO4)ccc2n1C	103	105	9	-12
O=C(NCCOc1ccccc1)c1ccccc1	99	99	10	-2
CC(C)CN(CC(C)C)c1nnc(NC(=O)c2csc3c2CCCC3)s1	106	104	70	2
Oc1ccc(I)nc1CCc1ccccc1	99	102	11	4
COc1ccc(C(CC#N)C2CCOC(C)(C)C2)cc1 (configuration not stated)	105	98	.	-2
CN1C(=O)/C(=C/c2ccc(Cl)cc2)N(C)C1=S	101	104	-5	-38
O=C(COc1ccc(S(=O)(=O)Nc2ccccc2)cc1)N1CCOCC1	101	105	-18	-4
O=C(c1ccc(S(=O)(=O)N2CCCCC2)cc1)N(c1ccccn1)C1CCCCC1	104	105	6	-6
COc1ccc(C(=O)COC2=C(C#N)C3(CCCC3)C(C#N)C(=S)N2)cc1OC (configuration not stated)	100	103	.	-2
CCOC(=O)C1=C(C)NN=C(C)C1	99	107	-6	-5
CN(C)c1ccc(/C=C2\C(=O)N(c3ccccc3)N=C2C(=O)O)cc1	99	100	-49	-243
O=C(NCc1cccn1Cc1ccccc1)NC1CCCC1	100	104	-16	3
CC(Sc1cccc[n+]1[O-])C(=O)NCC1CCCCC1 (configuration not stated)	100	97	81*	5
CC(Sc1nnc(C(F)(F)F)n1N)C(=O)N(C)C1CCCCC1 (configuration not stated)	101	95	7	-21
C=CCN1C(=O)NC(=O)/C(=C/c2ccco2)C1=O	104	108	98*	-36

The results go on:
SMILES	PV pol inh	PV pol inh intensity	MbtI inh	MenB inh
O=C(CNC(=O)C1CCCCC1)Nc1ccccc1N1CCOCC1	.	.	-13	8
Cc1ccc(Cn2cc(CCC(=O)NC(C)C)c3ccccc32)cc1	105	111	-11	-26
Cc1cc(OCc2c(F)cccc2Cl)c2c3c(c(=O)oc2c1)CCCC3	102	107	-8	1
CCOC(=O)N1CCN(C(=O)CN(Cc2ccc(F)cc2)S(=O)(=O)c2ccc(C)cc2)CC1	104	103	4	-12
CSc1nc(N)c(C#N)c(Cc2ccccc2)c1C#N	110	108	6	-32
CC1CCCCN1C(=O)CCNC(=O)Cn1cnc2ccccc2c1=O (configuration not stated)	101	101	6	-13
O=C(NC(=S)N1CCN(c2ccccc2O)CC1)C12CC3CC(CC(C3)C1)C2	103	103	7	-20
CN1C(=O)CC(C(=O)O)SC1=Nc1cccc(C(F)(F)F)c1 (configuration not stated)	91	105	-6	-38
C=CCNC(=O)c1cc2sccc2n1Cc1ccccc1	101	101	6	-20
O=C(c1ccco1)N1CCN(Cc2nc3ccccc3[nH]2)CC1	104	107	-19	-15
O=C(Nc1cccc(F)c1)Nc1ccon1	106	102	-11	-8
O=C(O)C1CCN(C(=O)OCC2c3ccccc3-c3ccccc32)CC1	108	107	-8	-4
O=c1[nH]c2cc3nc(C(F)(F)F)[nH]c3cc2[nH]1	101	102	.	6
CC1CCN(C(=O)c2cc3nc(-c4ccco4)cc(C(F)(F)F)n3n2)C2CCCCC12 (configuration not stated)	109	115	.	-19
O=C(CN1C(=O)/C(=C\c2ccccc2F)Oc2ccccc21)NC1CC1	99	102	83	9
CC(C)OC(=O)CSc1nnc(-c2ccc(O)cc2)o1	99	99	22	-5
CCOP(=S)(NC(C)(C)C)OCC	99	96	-11	-22
COc1ccc(CC(=O)c2ccc(OC)cc2O)cc1	102	103	4	12
CC(=O)N(Cc1cc2ccccc2[nH]c1=O)c1ccccc1	97	102	42	-11
COc1ccc(-c2nnc(SCC(=O)NC(N)=O)n2C2CCCCC2C)cc1 (configuration not stated)	103	104	41	-27
CCCCCCn1c(=S)[nH]c2ccccc2c1=O	104	107	7	-19

From PubChem BioAssay

The order is random; about 1.7% have a hit in one of these screens.
